Sa growth inh: inhibitors of Staphylococcus aureus growth at 42 °C | S. aureus RN4220 growth, OD600, 20 h; hits give low values | relative growth, % (test concentration not listed) | 170,000 compounds, 0.53% hits | AID 720641;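 active = growth at 42 °C up to 50% and 20 or more points under that at 30 °C, or under 10% at both; inconclusive = no clear call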;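 also: 300 nL library stock went into each well; scaled to the means of positive and negative controls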
HCMV UL50-53 inh: inhibitors of HCMV UL50-UL53 nuclear egress complex interaction; HTRF UL50-UL53 interaction, normalized percent inhibition; inhibition, % (concentration not given with the values); 190,000 compounds, 0.15% hits; AID 1918969;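 active = both replicates at 50% or more, plus weaker picks with an unusually low signal ratio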;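 also: stock transfer was 100 nL into about 20 µL; 0% = negative control wells and 100% = wells with untagged competitor protein; inactives centre near -12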
GIV-Gai inh: blocks GIV peptide binding to rat Galpha-i3; Galpha-i3/FITC-GIV peptide fluorescence polarization, 90 min; hits give low values; scaled: aluminum fluoride 0%, vehicle 100%; 210,000 compounds, 0.42% hits; percent of control (FP), % (no concentration beside the values);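 active = replicate mean at 85% of control or lower, very high polarization wells dropped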;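 also: wells of about 15 µL received 100 nL stock; the first replicate is given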
Target sequence (P08753 whole entry, looked up): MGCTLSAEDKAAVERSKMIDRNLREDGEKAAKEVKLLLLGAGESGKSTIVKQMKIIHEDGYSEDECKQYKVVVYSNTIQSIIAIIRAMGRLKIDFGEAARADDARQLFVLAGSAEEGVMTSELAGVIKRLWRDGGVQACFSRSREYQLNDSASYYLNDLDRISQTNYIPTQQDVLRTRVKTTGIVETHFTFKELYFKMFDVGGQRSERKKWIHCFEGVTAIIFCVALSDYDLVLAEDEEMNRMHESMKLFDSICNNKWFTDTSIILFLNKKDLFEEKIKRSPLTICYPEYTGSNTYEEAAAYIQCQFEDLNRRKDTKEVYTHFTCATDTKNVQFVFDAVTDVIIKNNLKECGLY
Sa growth inh second temp: also measured in Sa growth inh; calls as there; relative growth, %; measured here: growth at 30 °C;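 optical density after 20 h as mean of two plates; 100% = untreated growth and lower means inhibition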
* = called active by the depositor; u = inconclusive; x = not tested or not shown.

SMILES | Sa growth inh | Sa growth inh second temp | HCMV UL50-53 inh | GIV-Gai inh
Cc1nn(Cc2ccc(F)cc2)c2sc(C(=O)Nc3ccc(S(=O)(=O)N4CCCC4)cc3)cc12 | 94 | 91 | -17 | x
COc1ccc(NC(=O)CN(C)S(=O)(=O)c2ccc3c(c2)CCC(=O)N3)c(OC)c1 | 103 | 87 | -27 | 106
Clc1cccc2sc(N3CCCC3)nc12 | 121 | 86 | x | 101
O=C(O)COc1ccccc1/C=C1/C(=O)Nc2cc(Cl)ccc21 | 80 | 83 | -33 | x
Cn1c(CSc2nc3ccccc3s2)nnc1SCC(=O)NCCCN1CCOCC1 | 104 | 97 | -8 | 96
CC1CN(Cc2ccccc2Cl)CC(C)O1 (centres undefined) | 94 | 111 | 7 | 100
COc1ccccc1Nc1ncnc2c1cnn2-c1ccccc1 | 103 | 85 | x | 103
C=CCC1C=CCC(CC=C)N1C(C)=O (centres undefined) | 81 | 93 | -12 | x
O=C(CC1c2ccccc2Oc2ccccc21)NCc1ccco1 | 107 | 86 | -8 | x
CCOC(=O)C1=C(C)NC(C)=C(C(=O)OCC)C1C(=O)OCC(=O)N1CCc2ccccc2C1 | 91 | 87 | -20 | x
COc1cc(C(=O)Nc2c3c(nn2-c2ccc(F)cc2)CS(=O)(=O)C3)cc(OC)c1OC | 106 | 87 | x | 103
COc1ccc(-n2c(SCc3nc(-c4ccc(C)cc4)no3)nnc2-c2ccccc2)cc1 | 109 | 86 | 6 | 101
Cc1ccc(-n2ncc(C(=O)NCCCN3CCc4ccccc4C3)c2C2CCN(C(=O)OC(C)(C)C)CC2)c(C)c1 | 98 | 68 | x | 107
COC(=O)C1=C(C)N(CC2CCCO2)C(=O)/C1=C\c1ccccc1 (centres undefined) | 102 | 83 | -12 | 102
COc1cc2c(cc1OC)C(NN)=NC(C)(C)C2 | 113 | 93 | x | 105
COCCCNC(=O)Cn1c(=O)n(-c2ccc(C)c(C)c2)c(=O)c2c3c(sc21)CCCCC3 | 107 | 94 | -29 | 106
CS(=O)(=O)c1nc2ccccc2[nH]1 | 102 | 99 | 1 | x
CNc1c(NC(=O)c2cccc(F)c2)c(=O)oc2ccccc12 | 94 | 89 | x | 103
COc1ccc(Cn2c(CO)cnc2SCc2ccccc2C)cc1 | 106 | 94 | x | 104
Cc1nc2c3ccccc3n3c(CCCC(=O)NC4CC4)nnc3n2n1 | 98 | 88 | -2 | 107
COc1ccc(NC(=O)Cn2c(C)cc3ccccc3c2=O)c(OC)c1 | 78 | 84 | -20 | 104
CCCCN(C(=O)c1cc(OC)c(OC)c(OC)c1)C1=CC2CCC(C1)N2C (centres undefined) | 73 | 111 | 23 | 104
O=C(Nc1ccc(NC(=O)c2cccs2)cc1)c1ccc(Br)cc1 | 102 | 108 | 10 | 106
CCOC(=O)/C=C1\SCC(=O)N1CC(=O)NC1CCCc2ccccc21 (centres undefined) | 70 | 86 | -19 | x
CCN(CC)S(=O)(=O)c1ccc(C(=O)Nc2nc3ccc4nc(SC)sc4c3s2)cc1 | x | x | -29 | 97

Next records:
SMILES | Sa growth inh | Sa growth inh second temp | HCMV UL50-53 inh | GIV-Gai inh
COc1ccc(Cl)cc1NC(=O)c1oc2ccc(S(=O)(=O)N3CCC4(CC3)OCCO4)cc2c1C | 84 | 85 | -34 | 102
Cc1ccc2ccc(C(Nc3ccccn3)c3ccccc3)c(O)c2n1 (centres undefined) | u | x | -46 | 104
O=C(Nc1cccc(Cl)c1)Nc1cc(NC(=O)c2ccccc2Cl)ccc1N1CCCCC1 | x | x | -9 | 106
O=C(O)c1cccn2c(=O)c3ccc(Cl)cc3nc12 | x | x | -111 | 100
Cc1cc2nnc(SCC(=O)Nc3c(C)n(C)n(-c4ccccc4)c3=O)n2c2c(C)cccc12 | x | x | -34 | 104
Cc1ccc(C(c2sc3nc(-c4ccco4)nn3c2O)N2CCN(Cc3ccccc3)CC2)cc1 (centres undefined) | 115 | 100 | x | 111
COc1ccccc1N1CCN(C(=O)CSc2nc3ccccc3nc2N2CCCCC2)CC1 | x | x | -16 | 104
CCOC(=O)c1ccc2c(c1)N(CC(=O)Nc1cccc(Cl)c1C)C(=O)c1ccccc1S2(=O)=O | x | x | -8 | 99
O=C(COc1ccccc1)Nc1ccccc1C(=O)OCc1cc(=O)n2nc(C3CC3)sc2n1 | 70 | 92 | x | 100
COc1ccc(CNC(=O)c2noc(C)c2CN2CCOCC2)cc1 | 102 | 89 | -30 | 106
NC(=O)c1csc(-c2cccnc2)n1 | 118 | 88 | -27 | 101
Cc1cccc(C)c1NC(=O)CCN1CCCC1 | 89 | 79 | -3 | 101
O=C1COc2cc(S(=O)(=O)N3CCC(C(=O)NCC4CCCO4)CC3)c(Cl)cc2N1 (centres undefined) | x | x | -2 | 103
CN1CCN(c2oc(-c3ccc(S(=O)(=O)N4CCCC4)cc3)nc2C#N)CC1 | x | x | -41 | 97
Cc1cccc(-c2nc3c(C#N)c[nH]n3c2NC2CCCCC2)c1 | 112 | 81 | -9 | 102
CC1=C/C(=N\Nc2ncc(Cl)cc2Cl)CC(C)(C)C1 | 154 | 86 | -16 | x
CCCOC(=O)c1ccc(NC(=O)C2CC(=O)N(c3ccc(C)cc3)C2)cc1 (centres undefined) | 113 | 88 | x | 101
CCOC(=O)c1c(C)cc(C)[nH]c1=S | 75 | 75 | -12 | x
COc1ccc(NC(=O)CCS(=O)(=O)c2cc3c(cc2C)NC(=O)CO3)cc1Cl | 98 | 99 | x | 106
CC1CSc2ccc(S(=O)(=O)N3CCOCC3)cc2N(CC(=O)NC(C)(C)C)C1=O (centres undefined) | x | x | -21 | 99
CCOc1ccccc1-c1nc(SCC(=O)c2ccc(OC)c(Br)c2)n[nH]1 | 113 | 89 | -2 | 103
COc1ccc(S(=O)(=O)N(CC(=O)NCCSCc2ccccc2)c2ccc(C)cc2)cc1 | 88 | 93 | -36 | 96
COc1ccc2nc(NC(=O)C3c4cc(OC)c(OC)cc4C(=O)N(C)C3c3cccnc3)sc2c1 (centres undefined) | x | x | -10 | 99
O=c1c2c3c(sc2ncn1Cc1ccc(F)cc1)CCC3 | x | x | -23 | 138
CC(C#N)(NC(=O)CSc1ncccn1)C1CC1 (centres undefined) | 99 | 106 | -12 | x

(further entries)
SMILES | Sa growth inh | Sa growth inh second temp | HCMV UL50-53 inh | GIV-Gai inh
CNC(=O)c1n[nH]c(=O)c2ccccc12 | 92 | 94 | -10 | x
CC1(C)CC(=O)C(C=Nc2ccc(S(N)(=O)=O)cc2)=C(O)C1 | 77 | 72 | -12 | 103
CC(C)NC(=O)COc1ccccc1-c1nc(C(C)C)no1 | x | x | -29 | 101
O=c1/c(=C\c2ccccc2)sc2nncn12 | 104 | 94 | -14 | x
CCOC(=O)c1sc2ncnc(N3CCN(c4ccc([N+](=O)[O-])cc4)CC3)c2c1C | x | x | -3 | 107
O=C(O)CN1C(=O)c2ccccc2C1=O | 96 | 91 | -19 | 99
CCCC(=O)Nc1ccc2c(c1)nc(CN1CCCC1)n2C | x | x | -3 | 109
O=C(CSc1nnc(CCCN2C(=O)c3cccc4cccc(c34)C2=O)n1-c1ccccc1)N1CCCCC1 | x | x | -18 | 110
CCOc1ccc(-c2nc(C#N)c(N3CCCC3)o2)cc1 | 105 | 95 | -15 | 108
COCCNc1nc(-c2cc(C)n(-c3ccccc3F)c2C)cs1 | 88 | 74 | -32 | x
CSc1ccc(-c2nnc(NC(=O)c3ccc4c(c3)OCCO4)o2)cc1 | 34 | 18 | x | 103
Cn1nnc(C(O)CNCc2ccc(Cl)cc2)n1 (centres undefined) | 106 | 95 | -8 | x
CN(Cc1ccccc1)c1ccc2nnc(-c3ccccc3)n2n1 | 120 | 89 | 2 | 104
CCc1ccc(-n2nc(N3CCC(C(=O)NCc4ccccc4Cl)CC3)ccc2=O)cc1 | x | x | -57 | 106
FC(F)(F)c1cc(-c2cccs2)n2ncnc2n1 | 92 | 71 | -56 | 100
COc1ccc(-c2cn3nc(N4CCC(C(=O)Nc5cccc(OC)c5)CC4)sc3n2)cc1 | 92 | 61 | x | 103
CCC(Cc1ccccc1)NC(=O)c1oc(=O)c2ccccc2c1-c1ccccc1 (centres undefined) | 100 | 87 | x | 100
CC(C)Cn1c(-c2ccccc2)c[nH]c1=S | 118 | 95 | 14 | x
COC(=O)OC1C=CS(=O)(=O)C1 (centres undefined) | 93 | 84 | 3 | 106
Cc1ccc(C)n1-c1ccc(C(=O)OCc2nc3ccsc3c(=O)[nH]2)cc1 | 48* | 86* | -25 | x
CC(Sc1ccccc1)C(=O)NCCc1ccccc1 (centres undefined) | 81 | 91 | 6 | 94
Cc1ccc(-c2cnnn2-c2ccc(-c3csc(C)n3)cc2)cc1 | 91 | 96 | -14 | x
CC(=Nc1ccc(Br)cc1)c1sc2ccccc2c1O | x | x | -10 | 106
O=C1CSC(c2ccc(Br)cc2)N1c1cccc(C(F)(F)F)c1 (centres undefined) | x | x | 3 | 103
CCCN(CCC)CCCn1cnc2c([nH]c3ccc(Cl)cc32)c1=O | 104 | 81 | -5 | 106

Reprinted from the part before: three compounds; new compounds follow.
SMILES | Sa growth inh | Sa growth inh second temp | HCMV UL50-53 inh | GIV-Gai inh
CC(=Nc1ccc(Br)cc1)c1sc2ccccc2c1O | x | x | -10 | 106
O=C1CSC(c2ccc(Br)cc2)N1c1cccc(C(F)(F)F)c1 (centres undefined) | x | x | 3 | 103
CCCN(CCC)CCCn1cnc2c([nH]c3ccc(Cl)cc32)c1=O | 104 | 81 | -5 | 106
COC(=O)c1ccccc1NC(=O)C1CCN(c2ncnc3onc(C)c23)CC1 | x | x | 3 | 105
O=S(=O)(c1ccc(F)cc1)N1CCC(n2cnc3cccnc32)CC1 | x | x | 8 | 102
O=C(NN1CCOCC1)c1ccc(Cl)cc1 | 105 | 103 | -18 | 101
COc1ccc(C2=NN(c3nc(C)cs3)C(c3ccccc3F)C2)cc1 (centres undefined) | x | x | -41 | 101
Cc1ccc(-c2nnc(SCC(=O)C(C)(C)C)n2N)cc1 | 79 | 89 | -29 | x
CC1=C(C(N)=O)C(c2ccco2)C(C#N)=C(SCC(=O)N2CCc3ccccc3C2)N1 (centres undefined) | 99 | 91 | -15 | x
Cc1nc2c3ccccc3n3c(CCCC(=O)NCCc4ccc(Cl)cc4)nnc3n2n1 | 80 | 82 | x | 98
O=C(CC1SC(=NC2CCCCC2)NC1=O)Nc1ccccc1 (centres undefined) | 112 | 86 | -6 | 107
CC1CCN(c2ccc(-c3noc(CN4C(=O)COc5ccc(Cl)cc54)n3)cc2)CC1 | x | x | -29 | 110
CCc1ccc(C2N=C(N)Nc3nc4ccccc4n32)cc1 (centres undefined) | 86 | 87 | 27 | 111
Cc1cccc(NC(=O)CSc2ccc(-c3sc(-c4ccccc4)nc3C)nn2)c1 | x | x | -6 | 101
c1ccc(-c2cc(-c3nn4cnnc4s3)c3ccccc3n2)cc1 | x | x | -37 | 106
C=CCC(CC=C)(C(=O)O)c1ccccc1 | 99 | 105 | 11 | 98
Cc1nc(=O)c(-c2ccccc2)c(C)n1-c1ccccc1 | 92 | 84 | -33 | x
CCOc1ccc2nc(SCC(=O)Nc3cccc(C(=O)O)c3)sc2c1 | x | x | 13 | 103
CN(CCc1ccccn1)c1nc(C(F)(F)F)nc2ccccc12 | 105 | 91 | -15 | x
CC(C)(C)C1CC(C(F)(F)F)n2nc(C(=O)O)cc2N1 (centres undefined) | 87 | 93 | 1 | x
O=C(NCC(c1cccnc1)N1CCN(c2ccccc2)CC1)OCc1ccccc1 (centres undefined) | 111 | 58 | x | 105
Cc1ccc(NC(=O)c2ccc3c(c2)N(C)C(=O)CO3)cc1 | x | x | -30 | 104
Cc1cccc(NC(=O)CSc2cc(C)c3cc(S(=O)(=O)N4CCCCC4)ccc3n2)c1 | x | x | -8 | 98
N#Cc1c(-c2cccs2)oc(-n2cccc2)c1-c1cccs1 | 92 | 95 | -8 | 143
CCC(C(=O)Nc1ccc(C)cn1)N1CCN(Cc2ccc(F)cc2)C(=O)C1=O (centres undefined) | x | x | -22 | 104
Cc1cccc(CSc2ccc(-c3cccs3)nn2)c1 | 75 | 66 | x | 99
COC(=O)c1ccccc1NC(=O)Cn1c(=O)cc(C)c2c(C)nn(C)c21 | 80 | 95 | x | 98
O=C(CC1CCCCC1)Nc1ccccn1 | 102 | 75 | -5 | 104
Cc1c(O)c2ccccc2n(C)c1=O | 112 | 97 | 1 | 106
COc1ccccc1-c1csc(-c2nnn(-c3ccc(Cl)cc3)c2N)n1 | x | x | -17 | 118

Gathered by group, the compounds so far containing a cyano group (6)
SMILES | Sa growth inh | Sa growth inh second temp | HCMV UL50-53 inh | GIV-Gai inh
CN1CCN(c2oc(-c3ccc(S(=O)(=O)N4CCCC4)cc3)nc2C#N)CC1 | x | x | -41 | 97
Cc1cccc(-c2nc3c(C#N)c[nH]n3c2NC2CCCCC2)c1 | 112 | 81 | -9 | 102
CC(C#N)(NC(=O)CSc1ncccn1)C1CC1 (centres undefined) | 99 | 106 | -12 | x
CCOc1ccc(-c2nc(C#N)c(N3CCCC3)o2)cc1 | 105 | 95 | -15 | 108
CC1=C(C(N)=O)C(c2ccco2)C(C#N)=C(SCC(=O)N2CCc3ccccc3C2)N1 (centres undefined) | 99 | 91 | -15 | x
N#Cc1c(-c2cccs2)oc(-n2cccc2)c1-c1cccs1 | 92 | 95 | -8 | 143

Source: PubChem BioAssay (ICCB-Longwood Screening Facility, Harvard Medical School)
